Screening data from PubChem.
SARS PLpro yeast: inhibitors of SARS-CoV papain-like protease in yeast; 330,000 tested, 0.19% active; Potency, µM (highest dose often 32.9 µM), without a hit: at the top dose activity, positive = growth rescue; AID 485353; S. cerevisiae expressing SARS-CoV PLpro, growth rescue; control for the full effect not named in the record; active means well fitted rising curve with a large enough effect; inconclusive means small, poorly fitted or top-dose-only effect; inactive means no such curve, though single readings can be large or run the other way; also: 0% is about no effect; nearly all actives have a fitted effect of over 55% in size; growth read by luminescence after 48 h
Marburg entry inh: blocks Marburg virus binding to or entry into cells. 300,000 tested, 1.8% active. Marburg virus pseudotyped entry inhibition, cell reporter; control for the full effect not named in the record; about a third of the inactives were read at about 46 µM. Potency, µM (series often up to 37.8 µM), for inactives: at the highest dose activity change, negative = inhibition, actives largely listed as inhibitors; active = well fitted inhibition curve with a large enough effect; inconclusive = small, poorly fitted or top-dose-only effect, or effect the other way; inactive = flat fitted curve, though single readings scatter; tested in HEK293 cells; about a fifth of its hits are not listed in these tables; also: % is scaled to controls: 0 for no effect and ±100 for the full control effect; luciferase read-out
RE007 growth inh: less growth of the S. pombe RE007 Vpr strain. S. pombe RE007 Vpr strain, BacTiter-Glo ATP luminescence, 24 h; control for the full effect not named in the record. Potency, µM (series often up to 92.2 µM), inactives show at the highest dose activity change, negative = less growth. 360,000 tested, 0.21% active; active = well fitted falling curve with a large enough effect; inconclusive = small, poorly fitted or top-dose-only effect; inactive = no such curve, though single readings can be large or run the other way;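 also: % is scaled to controls: 0 for no effect and ±100 for the full control effect; nearly all actives have a fitted effect of over 50% in size; the assay follows cell death caused by Vpr and the record does not say whether a fall means rescue or toxicity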
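Fission yeast RE007 carrying one integrated HIV-1 vpr copy, seeded at OD 0.01 in PMG+AL medium with 23 nL pinned compound. Grown 24 h at 30 degrees; viability read by BacTiter-Glo luminescence after 5 min.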
Cruzain Triton: cruzain (T. cruzi) inhibition with detergent. purified cruzain, Z-FR-AMC fluorescence, 0.01% Triton. 200,000 tested, 0.43% active. P25779. Potency, µM, for the others: max response, negative = inhibition, actives largely listed as inhibitors;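 also: plate controls were neutral wells for no effect and buffer without enzyme for full effect; nearly all actives have a fitted effect of over 40% in size; top concentration of the series not given in the record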
Target sequence (P25779 123-467 limits assumed): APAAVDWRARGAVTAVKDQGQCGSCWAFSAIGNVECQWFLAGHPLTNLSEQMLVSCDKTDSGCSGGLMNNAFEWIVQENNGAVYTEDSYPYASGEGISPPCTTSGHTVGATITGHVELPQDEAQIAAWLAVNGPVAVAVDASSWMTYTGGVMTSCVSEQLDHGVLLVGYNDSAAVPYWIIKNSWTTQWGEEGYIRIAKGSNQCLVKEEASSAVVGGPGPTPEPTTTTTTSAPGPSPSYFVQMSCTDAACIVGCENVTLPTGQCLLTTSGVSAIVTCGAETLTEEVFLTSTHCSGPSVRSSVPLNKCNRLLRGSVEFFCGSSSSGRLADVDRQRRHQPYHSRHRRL
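Steps: dispense cruzain (1.5 nM final) in acetate buffer pH 5.5 with DTT and 0.01% Triton X-100; pin-transfer compounds; incubate 15 min RT; add Z-FR-AMC (2 uM final); read fluorescence every 30 s, using the 60 s intensity change.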
2A StopGo: lowers the luciferase signal of an FMDV 2A StopGo reporter | human cells with a luciferase reporter of 2A StopGo recoding; control for the full effect not named in the record | Potency, µM (titrated, usually from 57.9 µM), inactives show at the top dose signal change, negative = less light | 410,000 tested, 1.2% active | AID 1159524; active = well fitted falling curve with a large enough effect; inconclusive = small, poorly fitted or top-dose-only effect; inactive = no such curve, though single readings can be large or run the other way; tested in HEK293T cells; also: % is scaled to controls: 0 for no effect and ±100 for the full control effect; nearly all actives have a fitted effect of over 45% in size; luciferase light after 4 h
LASV entry inh: Lassa virus entry inhibition; Lassa virus pseudotype entry inhibition, cell reporter; control for the full effect not named in the record; Potency, µM (doses to about 37.9 µM), without a hit: top-dose activity change, negative = inhibition, actives largely listed as inhibitors; AID 540256; 300,000 tested, 1.2% active; active means well fitted inhibition curve with a large enough effect; inconclusive means small, poorly fitted or top-dose-only effect, or effect the other way; inactive means flat fitted curve, though single readings scatter; tested in HEK293 cells; also: % is scaled to controls: 0 for no effect and ±100 for the full control effect; nearly all actives have a fitted effect of over 50% in size; luciferase read-out
Cruzain noTriton: blocks cruzain activity in detergent-free assay. purified cruzain, Z-FR-AMC fluorescence, no detergent. Potency, µM, for the others: max response, negative = inhibition, usual class: inhibitors. 200,000 tested, 2.3% active;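 also: plate controls were enzyme without inhibitor for no effect and buffer without enzyme for full effect; nearly all actives have a fitted effect of over 40% in size; top concentration of the series not given in the record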
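Purified cruzain at 1.5 nM, pre-incubated 15 min with compound at room temperature in 100 mM sodium acetate pH 5.5, 5 mM DTT, 0.00005% Triton X-100. Reaction started with 2 uM Z-FR-AMC; AMC fluorescence increase over 60 s gives rate.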
NS1 inh: blocks influenza NS1 protein function. S. cerevisiae slowed by influenza A NS1, growth recovery by OD600. Potency, µM (highest dose often 46.1 µM), inactives show at the top dose activity, positive = more growth. 270,000 tested, 0.4% active. AID 2326; active means well fitted rising curve with a large enough effect; inconclusive means small, poorly fitted or top-dose-only effect; inactive means no such curve, though single readings can be large or run the other way; also: nearly all actives have a fitted effect of over 50% in size
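Recovery from NS1-induced slow growth read by OD600 in budding yeast switched to galactose assay medium (pH 6.0, -URA) at 1:100 dilution. Compound 23 nl per well; the matching strain lacking NS1 serves as control.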
* marks the source's active call; other numbers are inactive results; ? = inconclusive; / = no result given; & = joins results of further samples; [ ] = another dose, or the depositor's remark. Unless noted, calls follow the shape of the dose curve; as a rule, active = well fitted curve in the direction sought with a large enough effect; inconclusive = small, poorly fitted or top-dose-only effect, or another doubt; inactive = no such curve, though single readings can be large; an effect the other way counts as inactive or inconclusive. Potency is read from the fitted curve at half-maximal effect.

SMILES	SARS PLpro yeast	Marburg entry inh	RE007 growth inh	Cruzain Triton	2A StopGo	LASV entry inh	Cruzain noTriton	NS1 inh
Cc1noc(/C=C/c2cccs2)c1S(=O)(=O)N1CCC(C(=O)NCc2ccccc2Cl)CC1	/	-8%[46.1 µM]	/	-5.0%	-3%	15%[46.1 µM]	13µM*	/
O=C(CCC(=O)N1CCN(C2CCCCC2)CC1)Nc1nnc(C(F)(F)F)s1	3%	1%	-1%	1.2%	-21%	2%	-1%	-1%
CCN(CC(=O)NC(C)C)C(=O)[C@H](C)NC(=O)c1ccc(Br)cc1	-1%	1%	-5%	/	3%	6%	/	/
CCCCNC(=O)COC(=O)c1cc(F)c(F)cc1Cl	-10%	0%	0%	-0.7%	21%	9%	1%	-4%
COc1ccc(C2=NOC3(CC(=O)N(c4ccc5ccccc5c4)C3=O)C2)c(OC)c1 (stereo not given)	-9%	6%	22%	5.1%	13%	1%	?	-14%
Cc1ccc(Oc2nc3ccccn3c(=O)c2/C=C(\C#N)C(=O)Nc2c(C)n(C)n(-c3ccccc3)c2=O)cc1	-9%	-27%	0%	-2.7%	?	0%	?	-2%
CCOC(=O)CC(NC(=O)CCc1c(C)nc2c(c1C)c(=O)n(C)c(=O)n2C)c1ccc(OCC)c(OC)c1 (stereo not given)	/	0%[46.1 µM]	/	1.8%	-10%	-1%[46.1 µM]	5%	/
O=C(Nc1ccccc1)Nc1cc([N+](=O)[O-])ccc1F	-13%	-18%	-6%	-5.6%	-12%	?	6%	-1%
O=C(Cc1cccs1)Nc1cc(SCCO)cc([N+](=O)[O-])c1	18%	?	-12%	-4.3%	21%	?	-10%	-4%
Cc1ccc(-n2c(=O)c3c(c4cc(C)ccc4n3C)n(CC(=O)c3ccc(Cl)cc3)c2=O)cc1	/	/	/	-0.9%	-14%	13%[46.1 µM]	?	/
CCCOc1ccc(NC(=O)CC2C(=O)N(CC)C(=S)N2CCCN2CCN(Cc3ccccc3)CC2)cc1 (stereo not given)	-10%	?	7%	/	4%	?	/	/
Cn1c(=O)oc2ccc(C(=O)CSc3nnnn3-c3ccccc3)cc21	6%	15%	-11%	-11%	-5%	?	-10%	6%
Cc1noc(NC(=O)c2ccccc2)c1C#N	-5%	?	4%	0.4%	6%	-1%	0%	17%
c1ccc(CCC2CCCCN2Cc2nc(-c3ccc4c(c3)OCO4)no2)nc1 (stereo not given)	-1%	?	-22%	/	-31%	2%[46.1 µM]	/	-11%
CCOC(=O)C(NC(=O)c1ccccc1)(N1CCCC1=O)C(F)(F)F (stereo not given)	13%	-3%[46.1 µM]	25%	4.3%	-11%	5%	13%	?
NC(C(=O)O)C1ON=C(Cl)C1O (stereo not given)	/	-2%	-28%	/	-6%	-12%	/	/
O=C1c2ccccc2NC(c2ccccc2)N1NS(=O)(=O)c1ccccc1 (stereo not given)	-5%	-14%[46.1 µM]	0%	/	-13%	14%[46.1 µM]	/	/
O=C(NCc1ccccc1)c1onc(CSc2ccc(F)cc2)c1C(=O)NCCCN1CCOCC1	10%	/	5%	0.2%	-28%	/	3%	-12%
Cn1cccc1/C=C1\SC(=S)N(CC(=O)O)C1=O	28%	-5%	5%	-21%	2%	16%	-30%	17%
O=C(Nc1ccc([N+](=O)[O-])cc1)c1ccc(S(=O)(=O)N2CCCC2)cc1	2%	-8%[46.1 µM]	0%	/	-12%	?	/	4%
Cc1cccc(C)c1NC(=O)Cn1nnc(-c2ccc(N3CCOCC3)cc2)n1	2%	?	-7%	-4.3%	11%	?	20µM*	4%
CC(C)(C)NC(=O)c1ccccc1NC(=O)C1CC(=O)N(C2CCCCC2)C1 (stereo not given)	-1%	0%[46.1 µM]	-19%	/	-1%	-18%	/	2%
O=c1[nH]c(-c2ccccc2F)nc2c1sc(=S)n2Cc1ccccc1	8%	/	18%	-3.3%	-26%	/	-3%	3%
CCn1ccnc1CN1CCN(CCC(C)C)C(CCO)C1 (stereo not given)	0%	-15%[46.1 µM]	-1%	/	-10%	?	/	2%
CCOc1ccc(OCC)c(NC(=O)CN(c2ccc(C)cc2)S(=O)(=O)c2c(C)noc2C)c1	-8%	?	8%	-9.1%	?	?	0%	-1%
(cont.)
SMILES	SARS PLpro yeast	Marburg entry inh	RE007 growth inh	Cruzain Triton	2A StopGo	LASV entry inh	Cruzain noTriton	NS1 inh
CCOC(=O)c1c(C)[nH]c(C(=O)OCC(=O)N2CCCC2=O)c1C	-1%	?	-19%	/	30%[activator]	3%	/	/
CCCNC(=O)c1ccc2c(=O)c(O)c(-c3ccc(Cl)c([N+](=O)[O-])c3)[nH]c2c1	15%	/	5%	/	-14%	/	/	-31%
Cc1cc(C)cc(C(=O)Nc2cccc(-c3nc4ncccc4o3)c2C)c1	/	?	/	-0.2%	-12%	0%[46.1 µM]	12%	/
O=C(c1cc(S(=O)(=O)N2CCCCC2)c(Cl)cc1N1CCOCC1)N1CCOCC1	2%	4%	-2%	1.8%	-2%	-2%	7%	2%
CC1CCN(S(=O)(=O)c2cc(C(=O)NCc3ccc(N(C)C)cc3)n(C)c2)CC1	/	/	/	-4.6%	-9%	2%[46.1 µM]	6%	/
COc1ccc(NC(=O)CC(NC(C)c2ccccc2)C(=O)O)cc1 (stereo not given)	12%	/	-2%	/	-8%	/	/	-1%
COc1ccc(-c2n[nH]c3c2CN(C(=O)c2ccc(OC)c(OC)c2)CC3)cc1	1%	/	1%	/	?	/	/	3%
COc1ccccc1NC(=O)c1ccc2nc(-c3ccccc3)c(-c3ccccc3)nc2c1	1%	-24%	7%	5.0%	19%	-5%	32µM*	2%
Cc1cc(C)cc(-n2nnc(-c3nsc(NC(=O)c4ccccc4Cl)n3)c2C)c1	/	10%[46.1 µM]	/	-1.1%	1%	-22%[46.1 µM]	-5%	/
C/C(=N\NC(=O)c1c(C)nc2ccccn12)c1ccc(O)cc1O	0%	-27%[46.1 µM]	-3%	/	3%	-26%[46.1 µM]	/	0%
Cc1c(Cl)cccc1NC(=O)C(=O)NCC(c1cccnc1)N1CCN(c2ccccc2)CC1 (stereo not given)	/	/	/	-8.0%	-29%	-13%[46.1 µM]	?	/
Cc1ccc(NC(=O)C(=O)NCC2CCCN2S(=O)(=O)c2cccs2)c(C)c1 (stereo not given)	0%	?	14%	/	-3%	?	/	/
CCCc1[nH]nc2c1C(c1cccc(OC(=O)c3ccco3)c1)C(C#N)=C(N)O2 (stereo not given)	6%	?	0%	?	/	-4%	20µM*	-6%
COc1ccc(CNc2nc(-c3ccccc3)nn2C(=O)c2ccc([N+](=O)[O-])cc2)cc1	30%	?	17%	0.8%	14%	4%	?	5%
CNC(=O)[C@H]1O[C@@H](n2cnc3c(NCc4cccc(I)c4)ncnc32)[C@H](O)[C@@H]1O	/	3%	3%[18.4 µM]	/	-24%&-12%&-5%	-12%	/	/
CN1CCN(C(CNC(=O)c2ccc(F)cc2)c2ccc3c(c2)OCO3)CC1 (stereo not given)	/	/	/	-1.6%	-9%	2%[46.1 µM]	1%	/
CN(C)c1ccc(C(CNS(=O)(=O)c2ccc([N+](=O)[O-])cc2)N2CCOCC2)cc1 (stereo not given)	-8%	4%[46.1 µM]	5%	/	-9%	6%	/	/
O=C(COc1ccc(S(=O)(=O)NC2CCCC2)cc1)N1CCCCCC1	?	16%	9%	-4.1%	27%	?	13%	0%
CC(=O)c1cnc(-c2cccc(Cl)c2)s1	0%	/	-4%	/	59%[activator]	/	/	3%
O=C(NCc1ccccc1F)C1CCCN1C(=O)Nc1cccc(F)c1 (stereo not given)	?	16%[46.1 µM]	8%	/	-6%	17%[46.1 µM]	/	21%
O=S(=O)(NC(=S)NC1CCCCC1)c1ccccc1	-4%	2%[46.1 µM]	-10%	/	-15%	14%[46.1 µM]	/	/
O=C(c1ccccn1)c1conc1C(=O)c1ccc(Br)cc1	-30%	21%	?	-4.6%	10%	10%	-5%	-42%
Cc1ccc(-c2noc(CN(C(=O)Cc3ccccc3)C(C)C)n2)cc1	0%	?	10%	-5.9%	1%	-11%	2%	-68%
CCC(=O)c1ccccc1OCCCCn1cncn1	0%	/	10%	/	3%	/	/	6%
O=C(CSc1n[nH]c(=O)[nH]c1=O)Nc1ccc2c(c1)C(=O)c1ccccc1C2=O	-1%	/	6%	/	0%	/	/	8%
More results
SMILES	SARS PLpro yeast	Marburg entry inh	RE007 growth inh	Cruzain Triton	2A StopGo	LASV entry inh	Cruzain noTriton	NS1 inh
CC1=N/C(=C\c2ccc([N+](=O)[O-])cc2)C(=O)N1c1cc(Cl)ccc1C	-1%	-20%	-1%	2.6%	/	-22%	-10%	13%
O=C(COC(=O)/C=C/c1cccc(Cl)c1)Nc1ccc2[nH]c(=O)[nH]c2c1	-4%	10%	-1%	/	-8%	-9%	/	/
CC(C)CCn1c(=O)c2ccccc2n2c(CN(C)Cc3ccccc3)nnc12	-8%	?	6%	-0.8%	?	-16%	0%	-17%
CC(/C=C/c1ccccc1)=N\NC(=O)c1cc(C)[nH]n1	-2%	28%	-7%	/	12%	1%	/	/
O=C(NNC(=O)c1ccc2c(=O)n3c(nc2c1)CCC3)c1ccc(F)cc1	4%	14%	17%	/	-9%	13%	/	/
COC(=O)COc1ccc(S(=O)(=O)N2CCCCC2)cc1[N+](=O)[O-]	-1%	15%[46.1 µM]	-15%	/	-22%	0%[46.1 µM]	/	4%
O=C(CCN1CCOCC1)NCc1ccccc1	7%	/	-10%	/	-20%	/	/	11%
COc1ccccc1CNC(=O)Cn1c(-c2ccc(F)cc2)cc(C(C)=O)c1C	/	/	/	0.2%	-15%	3%[46.1 µM]	-19%	/
CN(C)CCN(C)Cc1ccccc1Sc1cccc2ccccc12	-35%	?	15%	-4.0%	?	?	1%	-42%
Nc1c(-c2ccccc2)cnc2ncnn12	12%	13%	-11%	-2.7%	7%	8%	-1%	-3%
COc1ccc(Nc2oc(-c3ccc(F)cc3)nc2C#N)cc1	1%	-12%[46.1 µM]	8%	/	36%[activator]	?	/	-1%
